# Screening data from PubChem BioAssay.
# GLA inh pH 4.5: qHTS Assay for Inhibitors of Human alpha-Galactosidase at pH 4.5. purified enzyme, 4-MU-alpha-Gal fluorescence, pH 4.5. activity change, negative = inhibition, % at 105 µM. 230,000 tested, under 10 active. Alpha-galactosidase A (Homo sapiens), P06280; inconclusive = small, poorly fitted or top-dose-only inhibition, or a rising curve; inactive = flat fitted curve, though single readings scatter; no compound was filed as active;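 further: 0% = full activity with enzyme and -100% = basal without enzyme; dose as in the result columns while the protocol names 77 µM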
# Target sequence (P06280 whole entry, looked up): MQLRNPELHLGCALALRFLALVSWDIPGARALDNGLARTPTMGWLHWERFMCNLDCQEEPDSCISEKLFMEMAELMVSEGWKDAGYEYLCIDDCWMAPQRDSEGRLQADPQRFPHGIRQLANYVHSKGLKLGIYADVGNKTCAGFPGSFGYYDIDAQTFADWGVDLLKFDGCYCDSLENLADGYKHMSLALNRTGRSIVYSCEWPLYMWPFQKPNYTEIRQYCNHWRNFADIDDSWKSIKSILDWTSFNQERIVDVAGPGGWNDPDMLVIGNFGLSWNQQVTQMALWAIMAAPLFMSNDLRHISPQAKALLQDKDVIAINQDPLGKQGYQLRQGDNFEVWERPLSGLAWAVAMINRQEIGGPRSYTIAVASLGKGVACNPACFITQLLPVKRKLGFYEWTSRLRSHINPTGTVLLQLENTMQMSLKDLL
# miR-21 FLuc: qHTS Assay for Modulators of miRNAs and/orActivators of miR-21; HeLa miR-21 FLuc reporter, luciferase, 48 h; AID 2288, 2010; 340,000 tested, under 10 active; Potency, µM (top dose mostly 38.3 µM), for inactives: top-dose reporter change, positive = more light; active = well fitted rising curve with a large enough effect; inconclusive = small, poorly fitted or top-dose-only effect; inactive = no such curve, though single readings can be large or run the other way;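 further: % of control where 0% means no effect; miR-21 action dims this reporter so a rising signal means less miR-21 action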
#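 Luminescence from a firefly luciferase reporter carrying a miR-21 binding site downstream, stably expressed under a CMV promoter in HeLa cells that make miR-21 endogenously, reports miRNA modulation after 48 h compound exposure up to approximately 40uM final.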
# Rango dissoc inh: qHTS Assay for Inhibitors of RanGTP induced Rango (Ran-regulated importin-beta cargo) - Importin beta complex dissociation; 340,000 compounds, 0.071% hits; AID 540253, 2011; Biochemical FRET Rango-importin beta, RanGTP-induced dissociation; Potency, µM (top dose mostly 46.1 µM), inactives show at the top dose activity change, negative = inhibition; Snurportin-1 (Homo sapiens) + GTP-binding nuclear protein Ran (Homo sapiens) + Importin …; active means falling FRET ratio curve, often poorly fitted, with flat reads before Ran was added; inconclusive means other falling curves, or compound fluorescence or quenching; inactive means flat or rising ratio curve;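 further: potency means the concentration at half of the fitted maximal effect; % of control where 0% means no effect; nearly all actives have a fitted effect of over 45% in size; -100% = wells without RanGTP and RCC1; the record marks most hits as doubtful in a second field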
#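 FRET read at 45 min, room temperature: inhibitors block the CFP/YFP signal rise when RanGTP (0.6 uM Ran, 2 mM GTP, 0.2 uM RCC1) frees Rango (0.1 uM) from importin beta (0.25 uM). Pre-read after 5 min compound exposure flags interference.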
# Rango-impB inh: qHTS Assay for Inhibitors of Rango (Ran-regulated importin-beta cargo) - Importin beta complex formation; Importin subunit beta-1 (Homo sapiens), Q14974; Rango CFP/YFP FRET sensor + importin beta, 45 min; Potency, µM (titrated, usually from 92.2 µM), for inactives: at the highest dose inhibition of complex formation; 340,000 compounds, 0.031% hits; AID 540263, 2011; active = rising FRET ratio curve, often small or poorly fitted; inconclusive = mostly compound fluorescence or quenching in the first reads; inactive = flat curves in all reads;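 further: potency means the concentration at half of the fitted maximal effect; 0% = DMSO wells and 100% = buffer wells lacking importin beta; nearly all actives have a fitted effect of over 15% in size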
#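 FRET biosensor (snurportin 1 IBB flanked by EYFP and cerulean), 50 nM, with compound 5 min, then 0.125 microM importin beta in PBS, 1 mM DTT, 0.02% Tween-20, 0.1% BSA. CFP/YFP ratio read after 45 min at room temperature; pre-read flags interference.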
# Active calls of the source: *; ? = inconclusive; · = no result given.
SMILES,GLA inh pH 4.5,miR-21 FLuc,Rango dissoc inh,Rango-impB inh
Cc1ccc2nc3c(cc(C(=O)NCc4ccco4)c(=N)n3Cc3ccco3)c(=O)n2c1,-30,-3%,?,?
CC(C)CCn1c(=O)c2ccccc2n2c(=S)[nH]nc12,·,-5%,26%,0.2%
CN(C)c1cc2c(cc1NC(=O)c1ccccc1Cl)n(C)c(=O)n2C,·,-11%,-9%,-1.8%
N#Cc1cccc(CSc2ncnc(N)n2)c1,·,-7%,0%,-2.8%
O=C(Nc1ccc(Cl)cn1)c1cccc(S(=O)(=O)N2CCCC2)c1,·,-4%,1%,7.0%
Cc1c(C)c2ccc(OC(C)C(=O)NCCCn3ccnc3)c(C)c2oc1=O (stereo not given),·,-2%,-7%,-0.4%
CC(C)NC(=O)c1cc(-c2cccs2)on1,10,-58%,2%,1.6%
CCOc1ccc2[nH]c(=O)c(CN(CCO)C(c3nnnn3C3CCCCC3)C(C)C)cc2c1 (stereo not given),-9,-8%,-5%,?
CCOC(=O)c1[nH]c(C)c(C(=O)NC(C)(C)C)c1C,-5,-11%,5%,5.8%
O=C(c1c[nH]c2ccccc12)C(O)C(c1ccccc1)N1CCOCC1 (stereo not given),-4,-4%,2%,-0.1%
Cc1ccc2nc(-c3ccc(NC(=O)c4cccnc4)cc3)oc2c1,-2,-31%,-5%,1.5%
c1cncc(C2OCC3(CO2)COC(c2cccnc2)OC3)c1 (stereo not given),-20,0%,2%,?
O=C(CC1CCCCC1)NCc1ccccn1,-3,-9%,9%,1.5%
COc1ccc(CN(C)C(=O)Cc2ccc(OC)c(S(=O)(=O)N3CCOCC3)c2)cc1,·,·,-5%,0.0%
O=C(NCC1CCCO1)c1ccc(COc2ccc(Br)cc2)cc1 (stereo not given),11,8%,36%,2.6%
CCOC(=O)C(C)Sc1nc(=O)n2cc(C)ccc2n1 (stereo not given),10,-8%,9%,1.8%
Nc1ncnc2c1ncn2[C@@H]1O[C@H](CNC(=O)[C@@H]2CCN2)[C@@H](O)[C@H]1O,·,·,-17%,0.2%
O=C(Nc1ccc(Cl)cc1)Nc1cc([N+](=O)[O-])ccc1F,2,-46%,20%,1.2%
CCn1c(SCC(=O)Nc2ccc(C(C)=O)cc2)nc2nc3c(cc2c1=O)CCCC3,-3,-29%,0%,-3.1%
COCc1ccc(C(=O)N2CCCC(N3CCN(c4ccccc4C)CC3)C2)s1 (stereo not given),·,2%,-8%,-1.2%
NC(=O)CSc1nnc(Cc2csc(Nc3ccc(F)cc3)n2)n1Cc1ccccc1,-3,-1%,-5%,-1.2%
Cc1cc(C)c2cc(C#N)c(SCC(=O)NCC3CCCO3)nc2c1 (stereo not given),0,-1%,-2%,1.9%
CCS(=O)(=O)Nc1cc(C(=O)OC)ccc1C(=O)OC,-7,-2%,-14%,-1.4%
O=C1C=C(NCCOC23CC4CC(CC(C4)C2)C3)C2(CCCCC2)O1,-15,-2%,3%,0.4%
Cc1occc1C(=O)NCc1ccccc1F,-4,-1%,-15%,?
CSc1ccc(NC(=O)Nc2cccn(Cc3ccccc3)c2=O)cc1,-5,-20%,0%,-1.3%
CCc1cc(C(=O)OC)c(NC(=O)CC2Sc3ccc(C(F)(F)F)cc3NC2=O)s1 (stereo not given),5,0%,-10%,-5.3%
Cc1cc(C(=O)Nc2c(C)n(C)n(-c3ccccc3)c2=O)on1,1,-4%,17%,-1.7%
N#Cc1ccccc1CSc1nc2ccc(NC(=O)c3ccccc3C(=O)O)cc2s1,-11,-39%,5%,0.5%
COCCOC(=O)c1[nH]c2c(c1C)C(=O)CC(c1cc(OC)ccc1OC)C2 (stereo not given),1,15%,-16%,-0.1%
CN1CCN(C(=O)c2ccc(S(=O)(=O)c3ccc(Br)cc3)cc2)CC1,-9,-7%,-4%,2.9%
O=C(Nc1ccccc1C(=O)O)c1cc(S(=O)(=O)N2CCCCCC2)ccc1Cl,·,-1%,-11%,2.4%
CC1(C(=O)OCC(=O)Nc2ccccc2Cl)CC1(Cl)Cl (stereo not given),6,-1%,-14%,2.5%
Nc1ccccc1Nc1ccc([N+](=O)[O-])cc1[N+](=O)[O-],-4,-2%,0%,4.2%
CCCS(=O)(=O)N1CCN=C1SCc1ccc(C)cc1,-13,3%,-9%,-0.6%
COCc1cc(C)nc(OCC(=O)N/N=C/c2ccc(OC)c(O)c2)c1C#N,-8,3%,25%,0.3%
Cc1ccccc1NC(=O)NC1(C(=O)NCc2ccco2)CCCCC1,·,-2%,1%,2.0%
Cc1cc(C)c2c(=O)c3c(oc2c1)C(=O)N(CCO)C3c1cccc(O)c1 (stereo not given),3,-6%,6%,-3.2%
O=C(O)c1sc2cc(C(F)(F)F)cnc2c1-c1cccs1,4,-2%,12%,0.9%
CN(CC(=O)Nc1ccc(F)cc1)C(=O)COC(=O)c1cc([N+](=O)[O-])ccc1N1CCOCC1,·,·,0%,-0.4%
COc1cc(C)c(NC(=O)COc2ccc3c(c2)OCO3)cc1C,·,-29%,4%,1.5%
CCOc1ccccc1NC1=C(Cl)C(=O)N(c2ccc(OC)cc2)C1=O,-5,3%,-20%,-0.2%
COCC(=O)N(Cc1cc2ccc(C)cc2[nH]c1=O)c1ccc(C)cc1C,·,-4%,-5%,6.2%
N#C/C(=C\c1ccccn1)c1nc2ccccc2s1,-22,-20%,?,?
Cc1ccc(C(=O)COC(=O)c2ccc(-c3cnc4ccccc4n3)cc2)cc1C,3,-20%,11%,4.9%
N#CC(C#N)=Cc1ccc(OC(=O)c2ccccn2)cc1,-22,-12%,-1%,-5.1%
Cc1nn(-c2ccc(F)cc2)c(-n2cccc2)c1C(=O)N1CCN(C(=O)c2ccco2)CC1,·,-3%,-3%,-1.9%
COCc1cc(C)nc(SCc2ccc([N+](=O)[O-])cc2)c1C#N,·,-2%,-3%,0.7%
Cc1cc(C(=O)N/N=C2\CCCc3ccccc32)c(C)o1,5,-40%,-2%,-0.1%
COc1ccc(CN2CCN(C(=O)Cn3nc(C(=O)O)c4ccccc4c3=O)CC2)cc1F,·,-1%,1%,-0.1%
Cc1ccc(CNCc2ccc3c(c2)OCO3)cc1,·,0%,2%,0.9%
CS(=O)(=O)N1CCN(c2ccccc2F)CC1,10,-7%,-2%,-2.8%
COc1cccc(CN(C)C(=O)c2ccccc2Sc2ccccc2C#N)c1,·,-1%,1%,1.0%
Cc1[nH]c(=O)[nH]c(=O)c1/C=N\NC(=O)CCc1ccc(OC(C)C)cc1,0,4%,·,·
CC(Sc1nc2ncc(Cl)cc2[nH]1)C(=O)c1c(N)n(C)c(=O)n(C)c1=O (stereo not given),·,·,1%,3.4%
CC(=O)N1CCCc2cc(S(=O)(=O)N3CCc4ccccc4C3)ccc21,8,-2%,5%,-0.9%
CCc1cc(Cn2nc(C(=O)O)cc2-c2ccccc2)on1,·,·,-1%,-0.7%
Cc1ccc(-c2nc(CS(=O)(=O)CC(=O)N3CC(C)CC(C)C3)c(C)o2)cc1 (stereo not given),-3,9%,0%,-1.3%
O=C1Nc2ccccc2C1=Nc1cccc([N+](=O)[O-])c1,·,-5%,30%,1.3%
COc1cc(/C=N\NC(=O)c2sc(N)nc2C)cc(OC)c1OC,-8,-1%,2%,0.8%

# Part of the list above, tab-delimited.
Structure	GLA inh pH 4.5	miR-21 FLuc	Rango dissoc inh	Rango-impB inh
CS(=O)(=O)N1CCN(c2ccccc2F)CC1	10	-7%	-2%	-2.8%
COc1cccc(CN(C)C(=O)c2ccccc2Sc2ccccc2C#N)c1	·	-1%	1%	1.0%
Cc1[nH]c(=O)[nH]c(=O)c1/C=N\NC(=O)CCc1ccc(OC(C)C)cc1	0	4%	·	·

# Following part:
SMILES,GLA inh pH 4.5,miR-21 FLuc,Rango dissoc inh,Rango-impB inh
COc1ccc(NS(=O)(=O)c2ccc(Oc3ncccn3)cc2)cc1,2,7%,8%,4.3%
Cn1c(CC(=O)Nc2ccc(Cl)c(Cl)c2)nnc1SCC(=O)N1CCN(c2ccccc2)CC1,-5,23%,6%,-0.9%
Cc1cc(Cl)c2oc(C(=O)N(C)Cc3nccn3C)c(C)c2c1,·,-24%,-4%,-2.1%
Cc1c(C)n2c(SCC(=O)N3CCCCCC3)nnc2[nH]c1=O,·,·,-3%,-3.9%
CSc1nc(-c2ccc(C)cc2)nc(C(Cl)Cl)n1,-11,-2%,2%,-1.2%
Cc1ccc(NC(=O)CSc2ccc(C(N)=O)cc2[N+](=O)[O-])cc1C,3,-18%,?,-1.9%
CCCc1cc(=O)oc2c(C)c(OCC(=O)NCc3ccccn3)ccc12,·,1%,0%,9.2%
CC(C)C(=O)Nc1sc2c(c1-c1nc3ccccc3[nH]1)CCCC2,12,-7%,-24%,-1.2%
CCCOc1ccc(N/C=C/C(=O)c2cc(OC)c(OC)c(OC)c2)cc1,·,6%,?,?
O=C(OCC(=O)N1CCN(c2ccccc2)CC1)c1cccc([N+](=O)[O-])c1,·,·,0%,-0.4%
C=CCNc1ncnc2sc(SC)nc12,-2,-4%,0%,0.1%
Cc1cnc(C(=O)N(CC(C)C)c2c(N)n(CC(C)C)c(=O)[nH]c2=O)cn1,·,·,-8%,0.8%
CCNC(=S)NNC(=O)c1ccccc1OC(F)F,-3,0%,1%,5.7%
CC(=O)OCC1OC(COC(C)=O)(c2ccc(C)cc2)C(OC(C)=O)C1OC(C)=O (stereo not given),·,·,6%,3.3%
CC1(C)NC(=O)N(CC(=O)N2CCN(c3cccc(Cl)c3)CC2)C1=O,·,·,-18%,1.1%
CC(C)c1cccc(C(C)C)c1OC(=O)[C@H]1OC(c2ccc(Br)cc2)=C[C@@H]1c1ccc(Br)cc1,·,·,15%,-1.0%
COc1cc(/C=N/Nc2nc(Nc3ccccc3)nc(N3CCCCC3)n2)ccc1OCC(=O)O,-26,1%,-17%,1.4%
C=CCSc1nc(C)cc(C(=O)OCC)c1C#N,-16,-1%,-11%,0.9%
CCNc1sc(S(C)(=O)=O)nc1S(=O)(=O)c1ccc(Cl)cc1,-5,-3%,9%,-0.8%
Cc1cc(C)nc(N2CCN(c3ncnc4c3oc3ccccc34)CC2)n1,7,-9%,·,·
CCOCCCNCC(=O)NCC1CCCCC1,-2,-4%,-19%,-1.2%
O=c1[nH][nH]c(C(F)(F)F)c1/C=N/N1CCOCC1,0,-1%,3%,-2.7%
Cc1ccc(-c2cc(C(=O)Nc3nn[nH]n3)c3ccccc3n2)cc1,-3,4%,-4%,-0.1%
CC(C)(C)Nc1nc(Cl)nc(NCc2ccccc2)n1,-10,-7%,?,0.6%
CC(C)Cc1csc(NC(=O)C(C)C)c1C(=O)O,-5,0%,5%,0.8%
CCOc1ccccc1C(=O)N1CCN=C1SCc1cccnc1,-4,-13%,-3%,-1.1%
COC(=O)[C@]1(CC(C)C)N[C@H](c2ccc(-c3ccc(Cl)c(Cl)c3)cc2)[C@@H]2C(=O)N(C)C(=O)[C@@H]21,·,·,11%,1.9%
CCCC1CC(C)(c2csc(Nc3ccc(OCC)cc3)n2)OC1=O (stereo not given),?,17%,-4%,?
Cn1c2ccccc2n2c(=O)cc(-c3ccccc3)c(C#N)c12,1,-31%,-9%,?
COc1ccc(N(CC(=O)NC2CCCC2)S(=O)(=O)c2ccc(NC(C)=O)cc2)cc1,·,-3%,4%,0.0%
COc1ccc(OC)c(NC(=O)CCOc2cccc(C)c2)c1,·,23%,-15%,-2.6%
CC1=C(C(=O)Nc2ccccc2)C(c2cccnc2)n2ncnc2N1 (stereo not given),2,-1%,27%,-2.4%
Cc1cccc(-n2ccnc2SCC(=O)Nc2nccs2)c1C,-5,-1%,19%,-2.5%

# The list is partial; the hit share may differ from the screen's.
